From PubChem
Sa helicase inh: S. aureus DNA helicase inhibition; AID 485395; 0.05% of 120,000 active; inhibition, %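 (tested at about 80 µM)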; purified S. aureus helicase, fluorescence unwinding assay; about half of the hits fall short of the stated cut;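 active means both duplicates at 50% or more, or one of them with a favoured structure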;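 further: 0% = mean of negative control wells and 100% = mean of positive control wells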
MgrA-DNA mod: alters Staphylococcus aureus MgrA binding to DNA. fluorescence polarization. inhibition, %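 (about 10 µg/mL by stock and volumes)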. 0.13% of 84,000 active. AID 602314;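 active means above 50% in either of two replicates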;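 further: 0% = protein plus DNA without compound and 100% = DNA alone without protein; higher means less MgrA bound to DNA so lower polarization; one replicate is shown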
Active calls of the source: *; . = not tested or not shown.

Every second line gives: Sa helicase inh	MgrA-DNA mod
- O=C(CCC1CCCC1)OCC(=O)c1ccc2c(c1)OCO2
    -9	.
- COc1cc2nc[nH]c(=O)c2cc1OC
    1	-1.9
- Nc1cccc(Cl)c1Oc1ccc(S(=O)(=O)Nc2ccc(F)cc2)cc1
    .	2.0
- CC1(C)Cc2c(c(N3CCOCC3)nc3sc4c(=O)[nH]cnc4c23)CS1
    3	1.5
- COc1ccc(/C=c2\s/c(=C(/C#N)C(=O)Nc3cccc(C(F)(F)F)c3)n(Cc3ccco3)c2=O)c(OC)c1OC
    -161	.
- O=[N+]([O-])c1cccc(Cl)c1SCc1c(F)cccc1Cl
    .	-1.6
- NC(=O)CCNS(=O)(=O)c1ccccc1
    7	.
- O=C(CCNc1ccccc1)n1c(=O)oc2ccccc21
    6	3.2
- Cc1nn2c(=O)cc(COC(=O)C(Cc3ccccc3)NC(=O)c3ccccc3)nc2s1 (stereo not drawn)
    9	.
- CSc1c(C#N)c(-c2cc(C(C)(C)C)oc2C)nn1C
    .	-1.1
- Cc1ccccc1NCC1SC(=S)NC1=O (stereo not drawn)
    -22	.
- CSC1=NC=C(C#N)C2=NC(C)(c3ccc(Br)cc3)NN12 (stereo not drawn)
    .	0.7
- CC(=O)N(CC(C)C)c1nnc(-c2cccnc2)s1
    10	-3.6
- Cc1ccc2c(c1)C1CC(C)(O2)N(Cc2ccccc2)C(=O)N1 (stereo not drawn)
    2	.
- CCc1cccc2c(/C=C3/C(=O)N(C)c4ccccc43)c[nH]c12
    -10	3.4
- CCSc1nnc(C2CCCN(Cc3cccnc3)C2)n1C(C)C (stereo not drawn)
    -2	0.4
- COCc1cc(C)nc2sc3c(=O)n(Cc4ccco4)nnc3c12
    8	.
- O=C1NC(c2cc3c(cc2Br)OCO3)Oc2ccccc21 (stereo not drawn)
    11	-2.5
- CC1CN(C(=O)CCC(=O)NCc2ccco2)c2ccccc2O1 (stereo not drawn)
    13	0.0
- COc1ccc(NC(=O)CN(C)C(=O)C2CC(=O)N(c3cccc(C)c3C)C2)cc1 (stereo not drawn)
    -10	.
- O=C(CCN1c2ccccc2Sc2ccccc21)OCc1nnc(-c2ccccc2)o1
    14	.
- NC(=S)CC(=O)NCc1ccccc1
    -5	.
- O=C1/C(=C/c2ccncc2)CCc2ccccc21
    -14	.
- CCOC(=O)C1CCCN(CCc2ccccc2)C1 (stereo not drawn)
    9	-0.2
- CCn1c(SC)nnc1C1CCCN(Cc2ccccc2)C1 (stereo not drawn)
    -2	1.7
- COc1ccc(-n2ccc(O)c(Cc3ccc(Cl)cc3)c2=O)cc1
    .	-0.8
- O=C(CNc1ccccc1)N/N=C/c1ccccc1Cl
    -18	.
- Cc1cc(C)c2c(=O)n(CC(=O)NCCCN3CCOCC3)sc2n1
    -14	.
- Cc1sc2nc(CSCC(=O)c3cc(C)n(-c4ccc(Br)cc4)c3C)[nH]c(=O)c2c1C
    -7	.
- CCC1=N/C(=C\c2ccc(Br)cc2)C(=O)O1
    -22	.
- CC(=O)N/N=C/c1ccccc1
    -2	1.8
- O=S(=O)(Nc1ccccc1Cl)c1ccc2[nH]c(=S)oc2c1
    16	2.2
- Cc1cc(N2CCN(C(=O)C3CCC3C(=O)O)CC2)c2ccccc2n1 (stereo not drawn)
    .	-1.4
- CCN(CC(O)c1cccc(O)c1)C(=S)Nc1cccnc1 (stereo not drawn)
    -12	.
- O=C(CNCC1CCCCC1)Nc1cccc(F)c1
    3	-2.3
- Cc1ccc(-n2c(C)cc(C=C3C(=O)c4ccccc4C3=O)c2C)cc1
    0	6.2
- Cc1ccc(S(=O)(=O)NC23CC4CC(C2)CC(C(=O)O)(C4)C3)cc1
    -12	.
- CSC1=C(C#N)C(c2cccc(Cl)c2Cl)C2=C(CCCC2=O)N1 (stereo not drawn)
    -6	.
- Cc1[nH]c(=S)[nH]c(=O)c1Oc1ccc(=O)[nH]n1
    -19	.
- COc1ccc(OCCN2CCN(C(=O)c3c(C)nn(-c4ccc(F)cc4)c3C)CC2)cc1
    8	.
- O=C1/C(=C\c2ccc(Cl)cc2)Cc2ccccc21
    .	-2.0
- COc1ccc(-c2oc3ncn(CCCO)c(=N)c3c2-c2ccc(OC)cc2)cc1
    -2	.
- O=C(Nc1cccnc1)C(Cc1ccccc1)N1C(=O)C2C3C=CC(C3)C2C1=O (stereo not drawn)
    -2	.
- O=C(O)CC1=Nn2c(nnc2-c2cccs2)SC1
    .	-3.7
- CC1(C)CC2CC(C)(CN2C(=O)COc2ncnc3ccccc23)C1 (stereo not drawn)
    -25	.
- Cc1cc(C)nc(SCC(=O)n2c(C)c(C)c3ccccc32)n1
    36	.
- CSc1c(C)c(C#N)c(=O)n(NC(=O)COc2ccc(C#N)cc2)c1C
    8	.
- Cc1ccccc1C1=NC(c2ccc(F)cc2F)ON1 (stereo not drawn)
    -9	-2.2
- COc1ccc(CNC(=O)CCc2c(C)nc3nc(C)nn3c2C)cc1
    3	.
- Cc1cc2ccccc2c(=O)n1CC(=O)NCC(=O)NC1CCCCC1
    14	.
- CC(C)(C)c1csc(NC(=O)c2ccc(Br)o2)n1
    25	.
- O=C(NCCO)c1ccc2nc(-c3ccco3)c(-c3ccco3)nc2c1
    13	36
- Cc1ccc(S(=O)(=O)c2nc(-c3ccccc3Br)oc2N(C)C)cc1
    12	-0.3
- FC(F)(F)c1cc2[nH]c(=S)[nH]c2cc1Cl
    -23	.
- Cc1ccnc(NC2c3ccccc3C(=O)N2Cc2ccccc2)c1 (stereo not drawn)
    9	.
- O=C(CC1SC(=O)NC1=O)Nc1cccc(NC(=O)CC2SC(=O)NC2=O)c1 (stereo not drawn)
    -18	.
- Cc1cc(Nc2ccccc2)nc2cc(O)ccc12
    26	.
- Cc1ccc(OCc2nc(C#N)c(NCCCN(C)C)o2)cc1
    -9	.
- O=C(CSCc1c(Cl)cccc1Cl)NNC(=S)NC1CC2C=CC1C2 (stereo not drawn)
    .	6.4
- c1ccc(-c2noc(CNC3CCCCC3)n2)cc1
    0	-0.5

The list continues.
Every second line gives: Sa helicase inh	MgrA-DNA mod
- CCOC(=O)c1ccc(N=C2SC(C(=O)O)CC(=O)N2Cc2cccs2)cc1 (stereo not drawn)
    17	1.7
- CN(C)c1ccc(/C=C2/Sc3ccccc3C2=O)cc1
    -132	-0.1
- C#CC(C)(C)NC(=O)c1ccc(-c2ccccc2F)cc1
    .	-0.1
- CC(C)(C)OC(=O)NCc1n[nH]c(=S)n1Cc1ccccc1
    .	-0.9
- O=C(COC(=O)C12CCC(=O)N1c1ccccc1S2)c1c[nH]c2ccccc12 (stereo not drawn)
    7	.
- N#Cc1nc2[nH]c(-c3ccccc3)cc(=O)n2c1C#N
    10	.
- CCc1c(O)nc(SCC(=O)NC(C)(C)C)n(-c2ccc(F)cc2)c1=O
    -13	0.9
- CCCCC/C=C\C/C=C\C/C=C\CCCCCCC(=O)O
    .	3.5
- Cc1cc(SCC(=O)N(C)C2CCS(=O)(=O)C2)nc2ccccc12 (stereo not drawn)
    32	.
- CNC(=S)NCc1ccc2[nH]c3c(c2c1)CCCC3
    4	-1.6
- CC(C)CNC(=O)C(C)c1ccc(CC(C)C)cc1 (stereo not drawn)
    10	.
- O=C(c1cccc([N+](=O)[O-])c1)c1cc2cc(Br)cc(Br)c2o1
    .	-3.2
- O=C(O)CC(CC(=O)Nc1ccc(I)cc1F)c1ccccc1 (stereo not drawn)
    .	-1.5
- N=C1C(c2nc3ccccc3s2)=C(O)CN1/N=C/c1ccc(-c2ccc(S(=O)(=O)Nc3ncccn3)cc2)o1
    19	.
- COc1ccc(/C=C(\C#N)c2nc(-c3cc4c(ccc5ccccc54)oc3=O)cs2)cc1OC
    .	-1.5
- FC(F)(F)C1(C(F)(F)F)N=C(c2cccnc2)N(c2ccccc2)N1
    7	0.0
- N#Cc1ccc(CN2CCc3ccccc3C2)cc1
    -22	.
- NNC(=O)c1nc(-c2ccccc2)cc(-c2ccccc2)n1
    8	-4.3
- N#C/C(=C\c1ccc(N2CCOCC2)o1)C(=O)NCC1CCCO1 (stereo not drawn)
    -57	-34
- O=S(=O)(c1ccc(Br)s1)N1CCCC1c1ccc2c(c1)OCCCO2 (stereo not drawn)
    -5	.
- O=C1OC(c2ccccc2)=N/C1=C\c1cn(-c2ccccc2)nc1-c1cccs1
    -91	.
- OCCNc1ncnc2ccccc12
    10	3.2
- CCOc1ccc(-c2cc(C)n3nc(C(=O)Nc4cc(OC)c(Cl)cc4OC)cc3n2)cc1
    .	-0.9
- c1ccc(-c2nn[nH]n2)cc1
    17	-4.4
- CCOC(OCC)P(=O)(c1ccccc1)c1ccccc1
    .	-0.3
- c1nc2c3sc4nc(N5CCOCC5)c5c(c4c3ncn2n1)CCC5
    -15	0.3
- CCOC(=O)C1CCN(C(=O)c2ccc(C)cc2)CC1
    -5	2.0
- COc1ccc(CNC(=O)c2ccc(OC)cc2OC)cc1
    0	2.8
- CC(=O)Nc1ccc(SC2CCOC2=O)cc1 (stereo not drawn)
    -1	.
- COc1ccc(NC(=O)CN2CCN(S(=O)(=O)/C=C/c3ccccc3)CC2)cc1
    16	.
- Cc1ccc(C(C)C)c(OCC(=O)Nc2nonc2NC(=O)COc2cc(C)ccc2C(C)C)c1
    -9	.
- N#CCc1ccc(NC2(C#N)CCCCC2)cc1
    .	1.7
- Cc1cc(O)c(C=Nc2ccc(F)cc2)c(=O)o1
    2	-1.0
- CC1(C)OC(CO)C(CO)O1 (stereo not drawn)
    -5	1.1
- Cc1c(C#N)c(NC(=O)CN2CCCCC2C)n(Cc2ccco2)c1C (stereo not drawn)
    11	.
- Cc1cccc(-n2c(SCC(N)=O)nc3ccccc3c2=O)c1
    -4	-0.4
- O=c1c(-c2ccccc2)c(O)c2cccc3c4ccccc4n1c23
    .	-0.6
- COc1ccc(C(=O)Nc2ccc(N3CCOCC3)c(F)c2)cc1
    .	-1.1
- Cc1ccc(C(=O)N(c2ccccn2)C(C)c2ccco2)cc1 (stereo not drawn)
    -14	0.8
- C/C=C/C(=O)OCc1ccccc1Cl
    -7	.
- Cc1ccccc1NC(=O)COc1ccc2c(c1)OC(C)(C)CC2=O
    .	1.7
- O=C(CSc1nnc(CCCN2C(=O)c3cccc4cccc(c34)C2=O)n1-c1ccccc1)NCCCn1ccnc1
    .	1.2
- COc1cccc(N2C(=O)/C(=C/c3cccc(O)c3)SC2=S)c1
    15	.
- Nc1ccc2c(c1)S(=O)(=O)C=C2
    .	0.8
- CS(=O)(=O)N1CC2CCCN2c2ccc(C(F)(F)F)cc21 (stereo not drawn)
    .	-1.9
- O=C(COC(=O)C1CCCCC1)Nc1ccc(N2CCCCC2)cc1
    5	-1.7
- Cc1oc(-c2ccccc2Cl)nc1CS(=O)CC(=O)NC1CC1 (stereo not drawn)
    14	5.7
- CC(C)c1ccc(NC(=O)CSc2ncccn2)cc1
    .	0.0
- CN1C(=O)c2[nH]nc(-c3ccccc3)c2C1c1cccnc1 (stereo not drawn)
    -18	.
- CCC(CO)n1c(SCc2ccc(C#N)cc2)nc2cc(OC)c(OC)cc2c1=O (stereo not drawn)
    -6	.
- COC(=O)c1cccc(-n2c(CCC(=O)O)ccc2-c2ccccc2)c1
    9	1.9
- NS(=O)(=O)c1ccc(C(=O)O)cc1
    .	-1.8
- CC(OC(=O)c1nn(C)c(=O)c2ccccc12)c1ccccc1 (stereo not drawn)
    6	.
- Cc1oc(-c2ccccc2)nc1C(=O)NC12CC3CC(CC(C3)C1)C2
    -6	.
- O=C(O)CSCC(=O)N1CCN(C(=O)c2ccc(Cl)cc2)CC1
    .	-2.1
- CC1CCN(CC(C)OC(=O)C2COc3ccccc3O2)CC1 (stereo not drawn)
    7	.
- COc1ccc(Br)cc1-c1noc(C)n1
    -1	1.2
- COc1ccc(C(=O)NC(C)C(c2cccs2)N2CCOCC2)c(OC)c1 (stereo not drawn)
    7	.
- O=C(NCc1ccccc1)c1cc(C2CC2)[nH]n1
    -17	.
- O=C(NC1CC2CCCC(C1)N2Cc1ccccc1)C1CC1 (stereo not drawn)
    3	1.4

Continued.
Every second line gives: Sa helicase inh	MgrA-DNA mod
- Cc1nc(C(F)(F)F)ccc1NC(=O)N1CCCN(Cc2c(F)cccc2Cl)CC1
    .	-2.5
- Cc1nc2ccc(NC(=O)c3ccccc3Cl)cc2o1
    .	-1.9
- NC(=O)Cc1nnc(-c2ccccc2)c(-c2ccccc2)n1
    5	-0.2
- O=S(=O)(c1ccc(OC(F)(F)F)cc1)N1CCN(Cc2nnc(-c3ccco3)o2)CC1
    17	.
- COCCCNC(=S)Nc1ccc(Cl)cc1
    .	-0.3
- Cc1noc2ncnc(N3CCCC(C(=O)N4CCN(c5ccccc5F)CC4)C3)c12 (stereo not drawn)
    -1	.

Some of the compounds tested (hit frequency here may not be typical).
